Calb FLC – affects C. albicans growth with fluconazole; C. albicans CaCi-2 (fluconazole-resistant clinical isolate) + fluconazole, Alamar Blue growth, 48 h; growth inhibition, % (no concentration beside the values); 300,000 tested, 0.57% active;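 active = most replicates above 75%; inconclusive = exactly half above 75%; inactive = most below 75%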;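 also: all wells also contain fluconazole at 8 µg/ml as a sub-toxic cotreatment; 0% = median of DMSO wells and 100% = median of geldanamycin control wells; wells of about 8 µL received 7.5 nL stock; the first replicate is given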
A1 inh – inhibitors of the anti-apoptotic protein A1, read as caspase activation | MEF A1-2A-BIM cells, Caspase-Glo 3/7 luminescence, 3 h; percent of clofoctol response, vehicle zero | caspase activation, % (concentration not given with the values) | 330,000 tested, 0.066% active | AID 2462;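 active = over half of replicate activation scores above 10%, or exactly half above 10 with the replicate mean above 10; inconclusive = replicate mean below 10 yet half the replicates above 10; inactive = over half of replicates below 10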;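 also: wells of about 30 µL received 50 nL stock; many hits fall short of the cut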
UCH37 inh – blocks the human deubiquitinase UCH37 | purified proteasome/UCH37, Ub-AMC cleavage fluorescence | 330,000 tested, 0.33% active | inhibition, % (test concentration not listed) | Q9Y5K5 | AID 588478;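 active = mean of two replicates above 20%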;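 also: 0% = compound-free wells with enzyme and 100% = wells lacking proteasome; stock transfer was 100 nL into about 20 µL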
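Schedule: 30 min plus 25 min, room temperature / Material: human UCH37 within purified proteasomes / Technique: AMC fluorescence intensity at 355/460 nm / Buffer or medium: pH 7.4 Tris-HCl (50 mM) with ovalbumin, ATP-MgCl2, DTT / Controls: wells without proteasome as full block, compound-free enzyme plus substrate as uninhibited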
LANA-H2A inh – blocks KSHV LANA binding to histone H2A/H2B; cell-free LANA-H2A/H2B peptide, fluorescence polarization; 320,000 tested, 0.6% active; Q9QR71; AID 2629; inhibition, % (no concentration beside the values); in the data active = inhibition mostly above about 10%, no sharp cut-off; inactive = mostly below about 6.7%;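 also: stock transfer was 7.5 nL into about 10 µL; 0% = median of vehicle wells and 100% = median of positive control wells; one replicate is shown; the record names a cut of 25% in any replicate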
Target sequence (Q9QR71 whole entry, looked up): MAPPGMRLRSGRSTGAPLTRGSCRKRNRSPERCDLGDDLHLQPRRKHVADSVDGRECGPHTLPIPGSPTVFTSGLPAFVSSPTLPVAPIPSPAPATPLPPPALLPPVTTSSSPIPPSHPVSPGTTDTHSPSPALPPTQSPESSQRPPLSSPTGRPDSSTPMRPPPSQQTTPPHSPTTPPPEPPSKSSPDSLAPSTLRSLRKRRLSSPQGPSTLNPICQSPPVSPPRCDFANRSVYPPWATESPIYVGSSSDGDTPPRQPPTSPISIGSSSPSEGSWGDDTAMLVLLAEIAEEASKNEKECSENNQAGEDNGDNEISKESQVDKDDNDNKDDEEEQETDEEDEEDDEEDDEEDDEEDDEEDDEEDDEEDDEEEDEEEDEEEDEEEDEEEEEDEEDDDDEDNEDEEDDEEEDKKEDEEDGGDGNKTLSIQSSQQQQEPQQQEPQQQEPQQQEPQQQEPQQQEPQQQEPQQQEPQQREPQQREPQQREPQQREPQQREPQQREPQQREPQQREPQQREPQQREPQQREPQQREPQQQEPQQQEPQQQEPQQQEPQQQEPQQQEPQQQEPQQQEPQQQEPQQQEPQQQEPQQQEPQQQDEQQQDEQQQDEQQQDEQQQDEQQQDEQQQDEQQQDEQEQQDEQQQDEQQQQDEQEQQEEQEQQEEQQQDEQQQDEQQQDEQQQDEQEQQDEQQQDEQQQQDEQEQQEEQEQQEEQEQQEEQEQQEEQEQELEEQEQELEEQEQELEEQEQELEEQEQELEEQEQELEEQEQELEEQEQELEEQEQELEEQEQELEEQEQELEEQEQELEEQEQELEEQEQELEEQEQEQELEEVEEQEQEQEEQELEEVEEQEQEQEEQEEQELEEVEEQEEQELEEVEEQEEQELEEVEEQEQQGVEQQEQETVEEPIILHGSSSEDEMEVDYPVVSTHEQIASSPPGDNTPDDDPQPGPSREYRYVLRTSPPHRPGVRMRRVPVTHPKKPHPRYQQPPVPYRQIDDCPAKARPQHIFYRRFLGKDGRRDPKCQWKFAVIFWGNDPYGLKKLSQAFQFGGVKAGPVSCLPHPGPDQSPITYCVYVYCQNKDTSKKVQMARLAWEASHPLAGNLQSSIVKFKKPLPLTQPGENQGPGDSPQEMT
B2AR ag – activates human beta-2 adrenergic receptor causing internalization; Am2.2-beta2AR cells, FAP receptor internalization, flow cytometry; reference of the scale not given here; response, % (test concentration not listed); 340,000 tested, 0.43% active; P07550;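 active = response above a set limit, near 3 SD of response in nonfluorescent compounds, cut at about 42% in these data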;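 also: stock transfer was 100 nL into about 11 µL; a reference agonist was the positive control; negative values mostly stem from fluorescent compounds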
RanGTP-Imp inh – disruptors of Ran-importin-beta complex formation – biochemical, FRET, CFP-Ran, YFP-importin-beta, homogeneous, primary screen. cell-free CFP-Ran/YFP-importin-beta FRET ratio. inhibition, % (no concentration beside the values). 300,000 tested, 1.1% active;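 active = most replicates above 15%; inconclusive = exactly half above 15%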;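 also: 0% = DMSO wells and 100% = Ran loaded with GDP instead of GTP; wells of about 40 µL received 100 nL stock; the first replicate is given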
Beta cell apopt – blocks beta cell apoptosis. INS-1E cytokine-induced death, ATP luminescence, 48 h; percent of positive-control rescue, neutral wells zero. protection from apoptosis, % (concentration not given with the values). 300,000 tested, 0.8% active. AID 435005;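 active = all replicates at 75% or more, or half of them and the mean; inconclusive = half reach 75% but not the mean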;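 also: 0% = cytokine-treated negative control wells and 100% = positive control rescue; higher means more ATP so stronger rescue from cytokine killing; wells of about 40 µL received 100 nL stock; the first replicate is given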
T cruzi inh – T. cruzi replication inhibition. T. cruzi beta-gal in NIH3T3, luminescence, 90 h. inhibition, % (no concentration beside the values). 300,000 tested, 1.4% active. AID 1885;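 active = mean inhibition across valid replicates above about 55%, limit read from the data; inconclusive = mean below that limit but half or more replicates reach it; inactive = mean below it, under half of replicates reach it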;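 also: signal also drops with host cell toxicity which is not excluded here; 0% = plate median of DMSO wells and 100% = zero luminescence signal; higher percent means less beta-gal luminescence so fewer parasites; stock transfer was 50 nL into about 50 µL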
Numbers without * were called inactive; i = inactive; u = inconclusive; x = no result given.

SMILES	Calb FLC	A1 inh	UCH37 inh	LANA-H2A inh	B2AR ag	RanGTP-Imp inh	Beta cell apopt	T cruzi inh
Cc1nn(C(C)(C)C)c(OC(=O)c2ccco2)c1Sc1ccccc1	31	1.2	7.3	-2.0	8	3.6	-3	-7
COc1cc(NC(=O)c2cccs2)ccc1NC(=O)c1ccco1	2	-1.5	-7.3	0.4	-10	1.4	1	8
C=CCn1c(=O)n2ncnc2c2c3c(sc21)CCCC3	11	0.0	0.6	-2.1	-4	-2.1	-2	5
CCSc1nnc(NC(=O)c2ccc3ccccc3n2)s1	0	0.0	2.3	1.7	-2	6.3	3	6
CC(C)NC(=O)CCc1nnc(Cc2cccc(C(F)(F)F)c2)o1	-6	-1.5	2.5	2.4	0	-0.9	-2	1
COc1ccc(NC(=O)c2cc(-c3ccccc3OC)on2)cc1	-16	-1.3	-3.0	0.5	11	3.5	9	-51
CCOC(=O)C1(Cc2cccc(OC)c2)CCCN(C(=O)CCc2cccnc2)C1 (stereo not given)	-3	0.1	-1.2	0.8	4	2.7	-2	14
CN1C2CCC1CC(NS(=O)(=O)c1ccc(C#N)cc1)C2 (stereo not given)	-9	2.2	1.2	0.3	4	u	-3	-8
Cn1cnc2c1c(=O)n(Cc1ccc(F)cc1Cl)c(=O)n2C	-4	-0.6	-0.6	4.7	-5	1.3	0	7
CCOC(=O)COc1ccc2c(=O)c(-c3ccc(OC)c(OC)c3)c(C(=O)OCC)oc2c1	12	0.1	2.9	6.9	20	3.7	0	12
Cc1ccc(/C=C/C(=O)NCc2ccc3c(c2)OCO3)o1	-1	1.6	3.2	5.9	-1	u	-18	-6
Cc1ccc(Cl)cc1Nc1nc(N2CCOCC2)nc(N2CCOCC2)n1	22	-0.1	3.6	0.4	3	-1.1	2	31
O=C(COC(=O)c1ccccn1)c1cccc(Br)c1	2	0.1	0.1	-1.8	-1	2.6	-3	-5
O=C(COC(=O)c1cc([N+](=O)[O-])ccc1N1CCOCC1)Nc1cc(F)ccc1F	x	0.6	5.2	-5.0	-9	-4.5	-1	-1
NC(=O)[C@H]1CC2(CC(c3cccc(NC(=O)CC(c4ccccc4)c4ccccc4)c3)=NO2)CN1C(=O)CC(c1ccccc1)c1ccccc1 (stereo not given in full)	19	-0.2	1.0	-3.5	4	-3.3	-3	48
NC(=O)c1cc(S(=O)(=O)NCCc2ccc(S(N)(=O)=O)cc2)cs1	3	3.0	3.5	0.5	-2	7.6	0	-23
O=C(Cn1c(=O)c(=O)n(Cc2ccccc2)c2ccc(Cl)cc21)NCC1CCCO1 (stereo not given)	u	0.8	-14	-5.6	1	-2.7	4	-4
CCS(=O)(=O)N1Cc2ccccc2CC1C(=O)Nc1ccc(NC(C)=O)cc1 (stereo not given)	3	2.5	0.2	0.0	-1	-0.4	-11	-5
O=C(Cn1[nH]c(=O)c2ccccc2c1=O)OCC(=O)c1ccccc1	x	0.0	1.3	4.4	2	x	-3	x
COC(=O)c1cccc(NC(=O)CN2C(=O)c3ccccc3C2=O)c1	-3	0.5	-9.7	-0.9	12	-1.1	-2	-18
C=C(C)C(=O)Oc1ccc(N2C(=O)CCC2=O)cc1	8	1.9	5.9	-1.9	7	4.0	-3	-14
COc1ccccc1Nc1nn2c(=O)c3ccc(C(=O)NCc4cccnc4)cc3nc2s1	-2	0.2	x	0.4	55*	2.3	3	-9
CCc1ccc(NC(=O)CSc2nnc(-c3cnccn3)n2Cc2ccco2)cc1	0	-0.1	1.1	1.3	-1	-1.8	3	-2
CCOc1cc(/C=C/c2cc(C(F)(F)F)[nH]c(=O)n2)ccc1O	12	0.0	2.6	-2.6	10	-4.0	-16	-16
CCOC(=O)c1c(O)c2cccc3c2n(c1=O)CC3	3	0.1	-6.8	3.1	3	0.4	-8	-15

(further entries)
SMILES	Calb FLC	A1 inh	UCH37 inh	LANA-H2A inh	B2AR ag	RanGTP-Imp inh	Beta cell apopt	T cruzi inh
O=P(OC1CCCCC1)(OC1CCCCC1)C(O)c1cccnc1 (stereo not given)	28	0.7	3.6	-1.7	-1	5.8	-8	x
CCOC(=O)C1CCCN(CCC(=O)Nc2ccccc2)C1 (stereo not given)	-8	0.1	-4.7	-248	-3	0.1	-2	-11
O=C(c1scc2c1CCCC2)N1CCCCC1	-26	0.6	2.0	3.9	3	0.7	-6	-5
CCS(=O)(=O)c1nc(S(=O)(=O)c2ccc(C)cc2)c(N2CCCC2)s1	-2	-0.4	6.4	-6.0	-10	3.2	-5	23
O=C(/C=C/c1ccc2c(c1)OCO2)c1ccc[nH]1	10	-2.1	-4.0	2.4	4	-5.1	-8	-5
COc1ccc(NS(=O)(=O)c2cc(NC(=O)c3sccc3C)ccc2N2CCOCC2)cc1	-5	0.8	2.6	-0.7	-22	0.8	7	-17
CC(C)(C)c1cc(C(=O)NNC(=O)Nc2ccccc2)n(Cc2ccccc2)n1	11	-0.9	5.8	-6.0	2	2.6	-3	7
CC(=O)c1ccc(NCC(=O)N2CCN(S(=O)(=O)c3ccccc3)CC2)cc1	x	-0.6	4.2	0.6	3	x	-2	x
Cc1cc(/C=C2\C(=N)N3N=CSC3=NC2=O)c(C)n1Cc1ccccc1	-3	0.2	4.8	3.2	3	-0.9	5	-26
CCN1CCN(C(=O)Nc2ccc(OC)cc2OC)CC1	8	0.4	-0.3	3.1	-3	-4.9	-2	-2
COc1ccc(CCn2c(=N)c(C(=O)NCC3CCCO3)cc3c(=O)n4cccc(C)c4nc32)cc1 (stereo not given)	2	-0.2	x	-9.7	4	29*	33	58*
O=C(NNc1nc2c(F)cc(F)cc2s1)C1COc2ccccc2O1 (stereo not given)	12	-1.1	0.9	-2.4	3	0.1	0	-3
CSc1ccccc1NC(=O)c1ccncc1	-6	-0.6	0.7	-6.9	7	1.5	-4	-16
Cc1cc(C)c(C)c(OCC(=O)O/N=C(\N)c2cccnc2)c1	0	0.0	2.3	-2.5	3	-0.3	-12	9
c1cn(CCCNc2ncnc3nc[nH]c23)cn1	0	-0.1	0.9	2.5	-8	-2.1	1	-1
COC(=O)CC1=C(C(=O)OC)C(c2ccc3c(c2Cl)OCO3)C(C#N)=C(N)O1 (stereo not given)	27	0.2	3.5	0.1	11	13	3	-6
CCN1CCCC(OC(=O)c2cc(-c3ccc(C)cc3)nc3ccccc23)C1 (stereo not given)	-31	-0.2	-14	-1.7	-1	-3.9	5	26
CCCCn1c(=N)n(CC(=O)c2ccc(OC)cc2)c2ccccc21	20	-1.5	2.7	2.2	x	2.9	7	32
O=C(Cn1c(NCCO)nc2ccccc21)c1ccccc1	8	0.0	5.8	0.8	2	-3.7	-2	0
O=c1c(Cc2ccccc2)c(O)ccn1CCc1cnc[nH]1	16	-0.6	5.6	-5.4	3	8.8	-6	0
CN(C)C(CNC(=O)c1ccc2nccnc2c1)c1ccco1 (stereo not given)	x	-0.7	-7.2	5.4	5	x	-4	x
O=C(O)COc1c(-c2ccccc2)oc2ccccc2c1=O	-6	0.3	4.5	1.9	2	x	-1	-5
COc1cccc([C@@H]2Oc3ccc(OC)cc3C(=O)[C@H]2O)c1	4	-2.7	-8.2	2.4	2	-1.0	20	-12
CCc1ccc(C=NC23CN4CN(CN(C4)C2)C3)s1	5	-0.9	2.2	-1.9	7	3.6	-4	1
Nn1c(SCC(=O)N2CCCCC2)nnc1-c1ccncc1	-3	-0.6	-0.2	7.6	-3	-3.6	1	-2

New compounds follow.
SMILES	Calb FLC	A1 inh	UCH37 inh	LANA-H2A inh	B2AR ag	RanGTP-Imp inh	Beta cell apopt	T cruzi inh
CC(C)S(=O)(=O)N1CCN(c2ccnc3cc(Cl)ccc23)CC1	0	0.2	3.9	1.9	-9	u	-8	3
Cc1cc(Cl)c(OCCOCCN2CCCCC2)c(Br)c1	-20	1.4	6.2	x	-4	1.6	3	31
COc1ccc(/C=C/C(=O)OCC(=O)c2c(N)n(C)c(=O)n(C)c2=O)c(OC)c1	9	-0.9	-18	-2.9	3	-1.8	1	-10
Cc1ccc(S(=O)(=O)N(C)c2ccc(OC(C)C(=O)N3CCCC3)cc2)cc1C (stereo not given)	-3	1.2	2.1	-8.6	4	x	-2	-2
O=C(Cc1ccccc1)NCC1CCCO1 (stereo not given)	-10	0.2	1.1	2.6	8	-0.4	-5	6
COC(=O)C(=NNc1c(C)n(C)n(-c2ccccc2)c1=O)C(=O)OC	-31	-0.8	8.9	-2.8	-3	2.2	-1	-3
O=C(NCC1CCCO1)c1cccc(Br)c1 (stereo not given)	-1	1.1	1.6	-2.4	8	5.2	-6	-20
Cc1cc(NC(=O)Cn2cnc3c(nnn3-c3ccc(C)c(Cl)c3)c2=O)no1	-26	0.0	1.0	5.7	-8	0.3	-4	-8
COC(=O)c1ccc(S(=O)(=O)N2CCN(CCO)CC2)n1C	0	0.3	3.2	0.9	-2	0.6	-3	-1
Cc1ccc(-n2[nH]c(C)c(/C=N/NC(=O)c3ccc([N+](=O)[O-])cc3)c2=O)c(C)c1	103*	-0.2	x	-1.4	x	-0.2	x	-46
CC(C)(C)C(=O)OC/C(N)=N/OC(=O)c1ccc(Cl)cc1	-5	0.4	5.3	5.8	-2	2.9	3	-10
Cc1ccc(-c2cnc(-c3ccncc3)o2)cc1	10	-1.2	i	-0.8	11	-3.3	0	14
O=S(=O)(CCNCc1cccs1)c1ccc(Cl)cc1	0	0.5	1.4	-0.2	0	u	-8	-10
Cc1ccc2c(c1)N(C(=O)CCC(=O)N1CCC(C(N)=O)CC1)CC(C)O2 (stereo not given)	8	-0.4	0.9	1.9	17	-1.6	-5	0
Cc1cc2nnc(SCC(=O)N3CCCCC3)n2c(N)n1	4	0.9	-0.1	-2.9	-6	0.6	3	-19
O=C(CNC(=S)N(CCCN1CCOCC1)Cc1cccs1)NC1CC1	-18	-0.2	-0.1	4.0	-1	u	-4	-20
COc1cc2cc(C(=O)N[C@@H](Cc3ccccc3)C(=O)O)n(C)c2c(OC)c1OC	-11	1.5	-6.1	-1.5	2	-0.1	-3	-20
c1ccc(-n2nnnc2-c2cnc(-c3ccncc3)nc2-c2cccs2)cc1	37	0.9	-4.1	3.6	5	3.3	2	2
COc1ccc(/C=C(/NC(=O)c2ccccc2)C(=O)NC(Cc2c[nH]c3ccccc23)C(=O)O)cc1 (stereo not given)	-17	-1.3	2.8	1.1	6	x	-3	x
CC(=O)NC1C(Oc2ccc3c(C)cc(=O)oc3c2)OC(COC(C)=O)C(OC(C)=O)C1OC(C)=O (stereo not given)	-4	1.6	-1.5	-6.4	-1	-0.2	-6	5
Nc1nc(SCC(=O)Nc2ccc(Cl)c([N+](=O)[O-])c2)n[nH]1	x	-0.6	4.1	1.0	0	x	1	x
COc1ccc(N2CCN(C(CNC(=O)C(C)C)c3ccc4c(c3)OCO4)CC2)cc1 (stereo not given)	1	-1.4	0.8	-3.3	-7	-0.6	0	-24
COc1ccc(Nc2nc(NCc3ccco3)nc(N/N=C/c3ccccc3F)n2)cc1	21	-0.4	x	-1.4	10	4.2	-1	6
CCOC(=O)C1CCN(C(=O)COc2ccc3c(C)cc(=O)oc3c2)CC1	3	1.0	-46	1.2	11	3.4	x	-3

Screening results: PubChem, several laboratories

Outcome played no part in choosing rows; overall some 4.3% were active at least once.
